# AID923 – qHTS Assay for Allosteric/Competitive Inhibitors of Caspase-1: Spectroscopic Profiling in AFC Spectral Region | compound fluorescence, AFC spectral region (405/520 nm); almost no hit is shown here | Potency, µM (series often up to 57.5 µM), for the others: top-dose fluorescence increase, hits mostly activators | 75,000 compounds, 1.1% hits | AID 923, 2007; active = well fitted activation curve with a large enough effect; inconclusive = small, poorly fitted or top-dose-only effect;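 also: potency is read from the fitted curve at half-maximal effect; 0% is about no effect; scaled to a free AFC standard on each plate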
#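 Baseline compound fluorescence (AFC region, 405 nm ex/520 nm em) taken from the intercept of kinetic reads with 50 nM caspase-1 and 5 uM Ac-WEHD-AFC; normalized to an on-plate AFC standard curve; compounds titrated up to 57 uM.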
# A647 fluor – qHTS Assay for Spectroscopic Profiling in A647 Spectral Region | Compound fluorescence, A647 channel (570/671 nm), Tris buffer | 59,000 tested, under 10 active | max dye-equivalent concentration, M | AID 592, 2007; active means above 1 µM dye equivalent; inconclusive means 0.1 to 1 µM; inactive means 0.1 µM or less;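 also: values scaled relative to a standard on each plate; highest value over a series up to 38 µM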
#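 Each compound's intrinsic fluorescence at 570 nm excitation and 671 nm emission is measured across its concentration series in 100 mM Tris, pH 8.0, after 15 min at room temperature, and reported relative to an A647 curve.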
# A488 fluor – qHTS Assay for Spectroscopic Profiling in A488 Spectral Region; compound autofluorescence, A488 spectral region, dye equivalency; active compounds read high; max dye equivalency, M; 59,000 compounds, 0.1% hits; active = above 10 nM dye equivalent; inconclusive = 1 to 10 nM; inactive = 1 nM or less; about half of its hits are not listed in these tables;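 also: highest value over a series up to 38 µM; compound alone in buffer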
#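 Spectroscopic profiling in the A488 region: compounds in pH 8.0 Tris (100 mM), 15 min RT, CCD imaging with 480 nm excitation and 540 nm emission; responses normalized against A488 dye standards.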
# Resorufin autofl – qHTS Assay for Spectroscopic Profiling in Resorufin Spectral Region. Compound fluorescence, resorufin region 547/598 nm, buffer; active compounds read high. 59,000 compounds, 0.04% hits. max dye-equivalent concentration, M; active = above 10 nM dye equivalent; inconclusive = 1 to 10 nM; inactive = 1 nM or less; a few of its hits are not listed in these tables; also: highest value over a series up to 38 µM
#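 Dye-equivalent concentration values derive from comparing each well's 547/598 nm fluorescence against resorufin standards included on every plate. Incubation was 15 min at room temperature in 100 mM Tris, pH 8.0.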
# TSHR ag – qHTS Assay for Agonists of the Thyroid Stimulating Hormone Receptor | 73,000 compounds, 0.48% hits | HEK293-CNG-TSHR cells (CNG channel as cAMP sensor), membrane potential dye, cAMP | Thyrotropin receptor (Homo sapiens), P16473 | AID 926, 2007 | Potency, µM (titrated, usually from 57.1 µM), inactives show at the top dose activation, most hits filed as activators; active = well fitted activation curve of enough size with the parental cells flat; inconclusive = any curve in the parental cells; inactive = parental cells flat and receptor cells flat or falling; also: potency is read from the fitted curve at half-maximal effect; % of control where 0% means no effect; weak receptor curves with flat parental cells got no call and are not listed
# Target sequence (P16473 whole entry, looked up): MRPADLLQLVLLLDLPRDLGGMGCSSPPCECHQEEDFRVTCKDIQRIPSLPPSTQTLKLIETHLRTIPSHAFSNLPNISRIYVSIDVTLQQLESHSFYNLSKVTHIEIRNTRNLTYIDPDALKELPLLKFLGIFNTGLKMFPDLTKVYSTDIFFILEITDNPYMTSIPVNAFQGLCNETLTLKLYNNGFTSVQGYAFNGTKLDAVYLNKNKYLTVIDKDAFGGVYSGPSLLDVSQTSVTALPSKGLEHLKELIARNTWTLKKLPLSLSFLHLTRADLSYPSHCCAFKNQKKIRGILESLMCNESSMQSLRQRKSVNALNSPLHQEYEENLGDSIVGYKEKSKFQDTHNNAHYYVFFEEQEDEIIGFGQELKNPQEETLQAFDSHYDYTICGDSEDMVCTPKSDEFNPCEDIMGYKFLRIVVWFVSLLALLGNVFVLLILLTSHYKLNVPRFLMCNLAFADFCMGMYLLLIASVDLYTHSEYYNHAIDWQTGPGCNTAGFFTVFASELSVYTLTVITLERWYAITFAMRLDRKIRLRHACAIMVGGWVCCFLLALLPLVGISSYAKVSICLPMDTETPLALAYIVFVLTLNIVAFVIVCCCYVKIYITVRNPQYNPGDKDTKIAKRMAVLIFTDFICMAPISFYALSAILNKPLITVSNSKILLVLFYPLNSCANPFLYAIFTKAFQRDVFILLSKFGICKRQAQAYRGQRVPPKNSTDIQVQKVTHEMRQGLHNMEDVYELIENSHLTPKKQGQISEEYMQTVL
#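 HEK 293 cells stably expressing TSHR and a modified CNG channel, with CNG-only parental cells as counterscreen, were preloaded 60 min at room temperature with membrane potential dye containing 100 uM RO 20-1724. Compound exposure was 30 min, and depolarization was read as fluorescence at 590 nm.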
# * hit, by the source's call; i = inactive; ? = inconclusive; nt = no result given; [ ] = another dose, or the depositor's remark.
# Each structure is followed by: AID923 | A647 fluor | A488 fluor | Resorufin autofl | TSHR ag
O=C(CNC(=O)c1cc2ccccc2o1)NCc1cccs1
  0.4% | 1.18e-08 | i | i | -3.0%
Cc1cc(NC(=O)CN2CCN(c3ncccn3)CC2)no1
  -1.1% | 6.71e-08 | i | i | 8.5%
Cc1ccc(C(=O)NC2CC(C)(C)NC(C)(C)C2)c(C)c1
  -0.7% | 1.38e-08 | i | i | -1.7%
Cn1c(=O)c2c(ncn2CCSS(=O)(=O)O)n(C)c1=O
  -2.0%[11.5 µM] | 5.06e-08 | i | i | -1.8%[11.4 µM]
Cc1cc(/C=c2/sc3nc4ccccc4n3c2=O)c(C)n1-c1ccccn1
  nt | 1.67e-08 | i | i | nt
CCn1cc(C(=O)Nc2ccc(-n3cnnn3)c(OC)c2)c(=O)c2ccc(C)nc21
  0.0% | 1e-09 | i | i | -1.8%
O=C(NC1CCN(C(=O)N2c3ccccc3Sc3ccccc32)CC1)c1ccco1
  -1.8% | 4.17e-08 | i | i | 18.2%
CS(=O)(=O)N(CCc1ccccc1)CC(=O)N1CCN(Cc2ccc3c(c2)OCO3)CC1
  2.9% | 3.7e-09 | i | i | 18.2%
C=CCn1c(N)cc(=O)nc1SCC(=O)Nc1ccccc1
  -0.4% | 6.4e-09 | i | i | -2.8%
Cc1ccc(C(O)c2nc3ccccc3n2C(C)C)cc1 (configuration not stated)
  0.4% | 1.12e-08 | i | i | ?
O=C(NCc1cccnc1)c1noc2c1CCCCC2
  0.4% | 1e-09 | i | i | -4.0%
Cc1cc(=O)c2c(C)nn(-c3ccccc3)c2[nH]1
  1.1% | nt | nt | nt | -3.3%
Nc1nc(N)nc(CCCc2nc(N)nc(N)n2)n1
  12.8%[11.5 µM] | 1e-09 | i | i | 2.0%[11.4 µM]
C=CCOc1ccc(C2N3CC4(CC)CN2CC(CC)(C3)C4=O)cc1 (configuration not stated)
  0.7% | 1.42e-08 | i | i | ?
CCOc1ccc(-c2cn(CCC#N)cn2)cc1
  0.4% | 1.05e-08 | i | i | 8.0%[11.4 µM]
O=C(NCCc1ccc2c(c1)OCO2)C1CCN(S(=O)(=O)c2ccc(Cl)cc2)CC1
  -2.2% | 1.36e-08 | i | i | ?
CCCN(CCC)Cc1c(C(=O)OCC)nnn1-c1nonc1N
  1.7% | 3.12e-08 | i | i | ?
CC(CCc1ccccc1)NCc1ccncc1 (configuration not stated)
  -1.4% | 1.5e-09 | i | i | 1.1%
CSc1nnc2c(n1)OC(C1CC=C(C)CC1)Nc1ccccc1-2 (configuration not stated)
  1.3% | nt | nt | nt | 0.7%
COc1ccc2c(=O)c(N3C(=O)c4ccccc4C3=O)c(C)oc2c1
  -2.3% | nt | nt | nt | 3.5%

# Carrying on:
# Each structure is followed by: AID923 | A647 fluor | A488 fluor | Resorufin autofl | TSHR ag
NCC[C@H](O)C(=O)N[C@H]1C[C@@H](N)[C@@H](O[C@H]2O[C@@H](CN)[C@@H](O)[C@@H](O)[C@@H]2O)[C@@H](O)[C@@H]1O[C@H]1O[C@@H](CO)[C@@H](O)[C@@H](N)[C@@H]1O
  -2.1%[25.7 µM] | 6.4e-09 | i | i | -14.9%[25.6 µM]
O=C(c1ccco1)N(CCCN1CCOCC1)c1nc(-c2ccc(F)cc2)cs1
  0.6% | 1e-09 | i | i | ?
COC(=O)C(NC(=O)c1ccccc1)=C1C=C(C)OC(C)=C1
  1.8% | nt | nt | nt | 20.1%
COc1ccc(-c2cc(C(=O)NC(C)C)no2)cc1
  1.2% | 1.26e-08 | i | i | 0.4%
COc1ccccc1-n1cnc(N)c1C(=O)c1ccccc1
  -1.1% | 3.12e-08 | i | i | ?
CCOC(=O)c1cc(C#N)c(NCc2ccccc2)nc1C
  -0.6% | 2.7e-09 | i | i | 28.6%
O=C(Nc1ccc2ccccc2c1)c1cnccn1
  1.5% | 8.1e-09 | i | i | -0.4%
NC(=O)c1nc(N2CCOCC2)nc(N2CCOCC2)n1
  -1.0% | 2.69e-08 | i | i | -0.7%
COc1ccc2cc3cc(C(=O)NCCCN4CCOCC4)oc3nc2c1
  3.7% | 1e-09 | i | i | 2.7%
COc1ccccc1-n1c(SCC(=O)Nc2ccccc2C)nc(O)cc1=O
  -2.8% | nt | nt | nt | ?
CCOc1ccc(Nc2nc(Cc3nnc(SCC(=O)O)o3)cs2)cc1
  0.6% | 1e-09 | i | i | -2.2%
O=C1c2ccccc2C(=O)N1Cc1nc2ccccc2o1
  -1.0% | 2.93e-08 | i | i | -10.2%
CS(=O)(=O)c1ccc2nc(N)sc2c1
  -2.4% | 4.78e-08 | i | i | 7.7%
Cc1ccc2c(C)nc(NC3=NCN(Cc4ccccc4)CN3)nc2c1
  1.5% | 1e-09 | i | i | 4.5%
Cn1nnnc1SCC(=O)N(C1CCCCC1)C1CCCCC1
  -2.2% | 4.5e-09 | i | i | -6.2%
Nc1nc(-c2ccccc2)cc(N2CCCCC2)n1
  0.9% | 1.55e-08 | i | i | ?
Cc1ccc(-n2c3c(cc(C(=O)O)c2=O)C(=O)CC(C)(C)C3)cc1
  -0.5% | 2.7e-08 | i | i | 0.2%
C=CCn1c(C(C)NC(=O)CCC)nc2ccccc21 (configuration not stated)
  -0.1% | 1e-09 | i | i | -1.8%[11.4 µM]
CCSc1nc(O)c(C2OC(=O)c3c2ccc(OC)c3OC)c(=O)n1-c1ccccc1 (configuration not stated)
  nt | 8.4e-08 | i | i | nt
CC(C)(C)c1ccc(C(=O)N2CCC(C(=O)NCC3CCCO3)CC2)cc1 (configuration not stated)
  -0.5% | 5.18e-08 | i | i | -2.5%

# (listing goes on)
# Each structure is followed by: AID923 | A647 fluor | A488 fluor | Resorufin autofl | TSHR ag
CCS(=O)(=O)c1nc2ccccc2n1CC(=O)N1CCOCC1
  -2.4% | 1.61e-08 | i | i | -2.1%
COc1ccc(Cl)cc1NC(=O)C1CCCO1 (configuration not stated)
  1.5% | nt | nt | nt | 3.9%
COc1ccc(N2CCN(CCCNS(=O)(=O)c3c(C)noc3/C=C/N(C)C)CC2)cc1
  0.0% | nt | nt | nt | -17.3%
O=C(NC1(C(F)(F)F)NC(=O)N(Cc2cccnc2)C1=O)c1ccncc1 (configuration not stated)
  -0.9% | 2.57e-08 | i | i | -3.7%
COc1ccccc1NC(=O)c1ccc(NS(C)(=O)=O)cc1
  0.9% | 4.13e-08 | i | i | nt
CCOc1ccc2[nH]cc(C(=O)N3CCN(CC)CC3)c(=O)c2c1
  2.8% | 9.6e-09 | i | i | 2.6%
CCNC(=O)C1CC(=O)N(c2ccc(OCC)cc2)C1 (configuration not stated)
  1.0% | 1e-09 | i | i | nt
Cc1cccc(-c2nc(CN3CCCC(C(=O)NC4CCC(C)CC4)C3)c(C)o2)c1 (configuration not stated)
  -1.9% | 3.7e-09 | i | i | 3.6%[11.4 µM]
CC1=C(C(=O)Nc2ccc(Cl)cc2)C(c2ccco2)NC(=O)N1 (configuration not stated)
  -0.5% | 5.1e-09 | i | i | 20.2%
O=C(Cn1c(CN2CCCCC2)nc2ccccc2c1=O)Nc1ccccc1
  -1.1% | 1.02e-08 | i | i | 7.9%
CCOC(=O)c1[nH]c(C)c(C(=O)NCc2ccc(Cl)cc2)c1C
  -0.4% | 1.57e-08 | i | i | 0.5%
CCN1C(=O)c2cccc3c(NC(=O)c4ccc(S(=O)(=O)N(C)C)cc4)ccc1c23
  17.7% | nt | nt | nt | 1.9%[11.4 µM]
Cc1nc2ccccn2c1/C(O)=C1\C(=O)C(=O)N(CCN(C)C)C1c1cccnc1 (configuration not stated)
  -0.5% | 8.7e-09 | i | i | -2.7%
CCOC(=O)/C(N=O)=C(\O)C1CCN(C(=O)OCC)CC1
  -0.6% | 1.8e-09 | i | i | 11.2%
CC(C(=O)NC(=O)NCc1ccccc1)N1C(=O)c2ccccc2C1=O (configuration not stated)
  nt | 2.7e-08 | i | i | nt
CCS(=O)(=O)C(=C1NCCO1)S(=O)(=O)CC
  -1.0% | 4.8e-09 | i | i | -3.0%
COc1ccc(S(=O)(=O)N2CCN(C)CC2)cc1C
  3.9% | nt | nt | nt | -3.1%
CN1CC(=O)N(C)c2ncn(Cc3ccccc3)c2C1=O
  -1.3% | 4.4e-09 | i | i | ?
O=C(Cc1ccc(F)cc1)N(c1ccccc1)C1C=CS(=O)(=O)C1 (configuration not stated)
  -0.5% | 1e-09 | i | i | 0.3%
O=C(COc1ccccc1)Nc1ccc(S(=O)(=O)N2CCOCC2)cc1
  2.2% | nt | nt | nt | 6.9%

# Next part
# Each structure is followed by: AID923 | A647 fluor | A488 fluor | Resorufin autofl | TSHR ag
COc1cc(C(=O)NCCc2ccc3c(c2)OCCO3)ccc1OCC(=O)N1CCOCC1
  -0.5% | 3.5e-09 | i | i | 3.4%
O=C(Cn1cnc2c(cnn2-c2ccc(F)cc2)c1=O)NCCc1ccccc1
  -1.8% | nt | nt | nt | ?
O=C(Cn1ncc2c1-c1ccccc1OC2)Nc1ccc(S(=O)(=O)N2CCCCC2)cc1
  1.4% | nt | nt | nt | -5.3%
O=C1CC(c2ccco2)Cc2nc(N3CCN(Cc4ccc5c(c4)OCO5)CC3)ncc21 (configuration not stated)
  -1.8% | 7.5e-09 | i | i | ?
CC1=C(C(=O)Nc2ccc(F)cc2)C(c2ccc(C)o2)C2=C(CC(C)(C)CC2=O)N1 (configuration not stated)
  1.7% | 8.3e-09 | i | i | -2.7%
COc1ccc(C2CCN(Cc3cccnc3)CC2O)cc1 (configuration not stated)
  2.4% | 4e-09 | i | i | -1.4%
Cc1cccc(C)c1NC(=O)N1CC=C(n2c(=O)[nH]c3ccccc32)CC1
  0.3% | 3.18e-08 | i | i | -1.4%
O=C(c1ccco1)N1CCC2(CCN(Cc3cc(C(F)(F)F)cc(C(F)(F)F)c3)CC2)CC1
  -1.4% | 1e-09 | i | i | ?
O=C1CC(CCC(=O)NC2CC2)c2ccccc2N1 (configuration not stated)
  -2.1% | 1.1e-09 | i | i | 0.0%
Cc1ccccc1OCc1nnc(SCC(=O)NCc2ccccc2)n1C
  -1.9% | 2.15e-08 | i | i | 5.5%
COc1ccc(CCNc2oc(-c3ccco3)nc2C#N)cc1
  0.8% | 1e-09 | i | i | ?
COc1ccccc1CCNC(=O)c1ccoc1C
  -3.6% | 1.86e-08 | i | i | -13.5%
O=C(Nc1ccc(N2CCCCC2)cc1)c1cncc(Br)c1
  0.0% | nt | nt | nt | -26.0%
O=C(O)C1C2C=CC(C3CC23)C1C(=O)O (configuration not stated)
  -0.3% | nt | nt | nt | -5.2%
Cc1ccc(N(CC(=O)O)C2SC(=O)NC2=O)cc1 (configuration not stated)
  nt | 5.39e-08 | i | i | nt
COC(=O)c1ccc(C(NC(=O)OCc2ccccc2)/C(=C/[C@@H](C)C(=O)Nc2ccc(OC)cc2)c2cccnc2)cc1 (some centres not stated)
  3.5% | nt | nt | nt | 16.7%
O=C1Cc2ccccc2N1c1ccccc1
  -2.5% | 7.4e-09 | i | i | 4.8%
CCOC(=O)c1oc2ccccc2c1NC(=O)CN1CCN(C)CC1
  1.4% | 2.66e-08 | i | i | 21.0%
Cc1nc2ccccc2c2oc(C(=O)NC3CC3)cc12
  -0.3% | nt | nt | nt | 1.5%
Cc1nc2n[nH]c(N)c2c2c1COC(C)(C)C2
  nt | 2.9e-08 | i | i | nt

# Single records, as listed above. Values in the order: AID923	A647 fluor	A488 fluor	Resorufin autofl	TSHR ag
# Listed for Cc1ccc(N(CC(=O)O)C2SC(=O)NC2=O)cc1 (configuration not stated) → nt	5.39e-08	i	i	nt
# Listed for COc1ccccc1CCNC(=O)c1ccoc1C → -3.6%	1.86e-08	i	i	-13.5%
# Listed for O=C1CC(c2ccco2)Cc2nc(N3CCN(Cc4ccc5c(c4)OCO5)CC3)ncc21 (configuration not stated) → -1.8%	7.5e-09	i	i	?

# Screening data (PubChem)

# This is a subset (hit frequency here may not be typical).
